PABP polyA inh – PABP poly(A) RNA binding inhibitors, primary screen, biochemical, fluorescence polarization, uHTS; Polyadenylate-binding protein 1 (Homo sapiens), P11940; inhibition, % at 35 µM; hit rate 1% among 290,000; AID 2014, 2009;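 active = 50% or more with normal probe brightness, or confirmed in later tests; inconclusive = above 50% with abnormal brightness, or retests that disagree; inactive = below 50% or failed in later tests; about a fifth of its hits are not listed in these tables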;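 also: calls also rest on retests at 20 µM and on dose response follow-up; controls were probe without protein and protein plus probe with vehicle; some compounds called inactive have numbers as strong as hits; many hits fall short of the cut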
UUG fidelity – modulators of yeast start codon fidelity, primary screen, whole organism, S. cerevisiae, single point, plate reader | activity score, % at 18.7 µM | hit rate 0.13% among 350,000 | S. cerevisiae UUG-firefly luciferase reporter, luminescence/redox ratio | AID 602363, 2012;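 active = replicate mean at a twofold rise or more, about +100% in these data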;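 also: firefly luciferase made from a UUG start codon reports start codon fidelity; reporter light over untreated wells divided by growth signal over untreated wells; some hits fall short of that in this replicate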
CSC inhib – cancer stem cell viability inhibitors, primary screen, luminescence. inhibition, % at 7.5 µM. cancer stem cell-like cells viability. hit rate 1.1% among 300,000;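 active = mean at 75% or more and at least half the replicates too; inconclusive = mean and replicates disagree; tested in HMLE shEcad cells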;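 also: 0% = median of negative and 100% = median of positive control wells; the first replicate is given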
eIF4H inh – human eIF4H binding inhibitors, primary screen, translation initiation inhibitor project, biochemical, uHTS, fluorescence polarization; AID 2012, 2009; Eukaryotic translation initiation factor 4H (Homo sapiens), Q15056; eIF4H fluorescence polarization binding assay; hit rate 0.94% among 290,000; inhibition, % at 35 µM;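 active = 50% or more with normal probe brightness, or confirmed in later tests; inconclusive = above 50% with abnormal brightness, or retests that disagree; inactive = below 50% or failed in later tests; about a fifth of its hits are not listed in these tables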;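 also: calls also rest on retests at 20 µM and on dose response follow-up; 0% = protein and probe with vehicle and 100% = probe without protein; strong numbers were not always called active; many hits fall short of the cut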
MT1-MMP act inh – blockers of MT1-MMP proenzyme processing, primary screen, HT1080 RFP-PRO-GFP cells, GFP/RFP fluorescence. Matrix metalloproteinase-14 (Homo sapiens), P50281. GFP/RFP ratio fluorescence, overnight; percent of plate control window, DMSO zero. GFP/RFP ratio change, % at 20 µM. hit rate 0.061% among 360,000. AID 651647, 2012;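 active = GFP/RFP ratio change of at least 30% with cell ATP level not reduced by more than half and red fluorescence within 50% of control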; also: strong numbers were not always called active
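Material – HT1080 RFP-PRO-GFP cells · Control set – DMSO wells and RFP-L50D-GFP cells · Incubation – overnight cell settling, then overnight compound exposure, 37 °C, 5% CO2 · Compound dosing – single-point 20 µM compound, 1% DMSO · Read-out – GFP/RFP fluorescence ratio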
HIV Env fusion – inhibitors of HIV-1 Env-driven cell-cell fusion, primary screen, HeLa-JRFL effector, CEM21 target cells, luciferase | hit rate 1.1% among 360,000 | inhibition, % at 12.3 µM;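 active = mean replicate inhibition score of at least 50 and every replicate individually at or above 50; inconclusive = only one of the two criteria met; inactive = mean below 50 and not all replicates reaching 50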;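 also: 0% = plate neutral controls and 100% = maraviroc near 300 nM; one replicate is shown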
Rce1 inhib – yeast Rce1p protease inhibitors, primary screen, biochemical, fluorescence, cell-free homogeneous | yeast membranes, quenched prenylated peptide cleavage fluorescence | calls only | hit rate 0.27% among 290,000 | AID 2563, 2010;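 active = fall in fluorescence gain of 50% or more versus controls, with final raw signal at or below 3038400; inconclusive = same 50% fall but final raw signal above 3038400; inactive = fall in fluorescence gain under 50%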;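 also: plate controls were neutral control wells for no effect and wells lacking membranes for full effect; tested at 10 µM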
Target sequence (Q03530 whole entry, looked up): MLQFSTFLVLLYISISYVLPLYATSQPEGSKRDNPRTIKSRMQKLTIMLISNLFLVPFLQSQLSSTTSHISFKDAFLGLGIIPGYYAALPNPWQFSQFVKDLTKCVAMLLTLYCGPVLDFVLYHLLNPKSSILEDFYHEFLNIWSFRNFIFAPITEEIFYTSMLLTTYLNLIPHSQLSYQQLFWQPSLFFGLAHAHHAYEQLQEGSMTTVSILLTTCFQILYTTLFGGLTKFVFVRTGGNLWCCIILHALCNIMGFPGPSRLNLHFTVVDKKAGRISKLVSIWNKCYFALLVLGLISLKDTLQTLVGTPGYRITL
MT1-MMP act inh RFP – also measured in MT1-MMP act inh; calls as there; RFP signal change, %; measured here: RFP expression control read;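 0 = vehicle wells; hits needed this value within 50% of zero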
* hit, by the source's call; i = inactive; ? = inconclusive; nt = no result given; + = active, no number. These rows are one share of the data; the hit share may differ from the screen's.

SMILES	PABP polyA inh	UUG fidelity	CSC inhib	eIF4H inh	MT1-MMP act inh	MT1-MMP act inh RFP	HIV Env fusion	Rce1 inhib
O=C1c2ccccc2OC2(C=Cc3ccccc3O2)N1Cc1ccccc1 (configuration not stated)	2	10	nt	-6	-6	-18	nt	i
Cc1ccc(S(=O)(=O)N[C@H](C(=O)NCC2CCC(C(=O)O)CC2)C(C)C)cc1 (some centres not stated)	6	1	-3	10	0	1	-2	i
CCOC(=O)c1c(C)n(C)c2ccc(OC(=O)c3ccc(N4C(=O)CCC4=O)cc3)cc12	2	-3	-8	-2	2	6	-21	i
CC1=C(C(=O)N2CCCC(N3CCN(c4ccccc4C)CC3)C2)OCCO1 (configuration not stated)	-4	-3	3	-2	1	1	6	i
CCc1ccc2c(c1)C1(C(=O)N2)N2CCCC2C(C(=O)c2ccc3ccccc3c2)C12C(=O)Nc1ccccc12 (configuration not stated)	5	nt	159*	-7	-43	-27	-23	i
CCN(CC)c1ccc(N2C(=O)/C(=C/c3cccs3)SC2=S)cc1	-6	-12	0	-9	17	3	18	i
C[C@@H](NC(=O)[C@@H]1Cc2ccccc2CN1)C(=O)NCC1CCCO1 (some centres not stated)	4	-2	-17	0	nt	nt	-2	i
CC(C)(C)C(=O)Nc1ccccc1C(=O)OCC(=O)c1ccc2c(c1)OCCO2	4	nt	6	2	3	-3	nt	i
Cc1nn(C(C)C(=O)NCCCc2ccccc2)c(=O)c2cc3occc3n12 (configuration not stated)	5	0	-2	-8	4	6	4	i
Cc1ccccc1-c1nnn(CC(=O)Nc2cccc(S(N)(=O)=O)c2)n1	2	nt	-10	10	0	1	1	i
CC(=O)Nc1ccc(S(=O)(=O)Nc2ccc3[nH]c(=O)[nH]c3c2)cc1	12	-14	-4	5	3	4	5	i
COc1ccc([N+](=O)[O-])cc1NC(=S)NC(NC(=O)Cc1ccc(OC)c(OC)c1)C(Cl)(Cl)Cl (configuration not stated)	6	-12	8	12	7	-3	-281	i
COC(=O)c1c(NC(=O)CC2SC(N)=NC2=O)sc2c1CCCC2 (configuration not stated)	1	nt	-8	1	1	2	nt	i
O=[N+]([O-])c1cc(Br)c(Nc2ccccc2)c([N+](=O)[O-])c1	-5	-31	39	12	19	-1	-406	i
C=CCn1c(SCC(=O)c2c(N)n(CCC)c(=O)n(C)c2=O)nc2sc(CC)cc2c1=O	4	-14	2	-8	2	3	nt	i
O=C(c1ccc(N2CCN(C(=O)c3cccc(F)c3)CC2)cc1)c1cccc(F)c1	9	-5	8	-7	6	-8	1	i
CCCCc1cc(=O)oc2cc(O)ccc12	1	nt	18	2	-5	0	26	?
CC(=O)Nc1ccc(-c2sc(Nc3ccccc3)n[n+]2C)cc1	-7	-2	8	5	1	3	-30	i
Cc1cccc(C)c1NC(=O)COC(=O)C1Cc2ccccc2CN1C(=O)c1ccccc1 (configuration not stated)	-1	-6	-9	7	-4	-1	-177	i
Cc1cccn2c(=O)c3cc(C(=O)NCc4cccnc4)c(=N)n(C(C)C)c3nc12	10	-13	-14	16	-4	2	-315	?

Fetched by structure from above, 6 records:
SMILES	PABP polyA inh	UUG fidelity	CSC inhib	eIF4H inh	MT1-MMP act inh	MT1-MMP act inh RFP	HIV Env fusion	Rce1 inhib
CC(=O)Nc1ccc(-c2sc(Nc3ccccc3)n[n+]2C)cc1	-7	-2	8	5	1	3	-30	i
CC(=O)Nc1ccc(S(=O)(=O)Nc2ccc3[nH]c(=O)[nH]c3c2)cc1	12	-14	-4	5	3	4	5	i
Cc1cccc(C)c1NC(=O)COC(=O)C1Cc2ccccc2CN1C(=O)c1ccccc1 (configuration not stated)	-1	-6	-9	7	-4	-1	-177	i
CCOC(=O)c1c(C)n(C)c2ccc(OC(=O)c3ccc(N4C(=O)CCC4=O)cc3)cc12	2	-3	-8	-2	2	6	-21	i
O=C1c2ccccc2OC2(C=Cc3ccccc3O2)N1Cc1ccccc1 (configuration not stated)	2	10	nt	-6	-6	-18	nt	i
COC(=O)c1c(NC(=O)CC2SC(N)=NC2=O)sc2c1CCCC2 (configuration not stated)	1	nt	-8	1	1	2	nt	i

Back to the main list, repeating the 7 entries before the break.
SMILES	PABP polyA inh	UUG fidelity	CSC inhib	eIF4H inh	MT1-MMP act inh	MT1-MMP act inh RFP	HIV Env fusion	Rce1 inhib
O=[N+]([O-])c1cc(Br)c(Nc2ccccc2)c([N+](=O)[O-])c1	-5	-31	39	12	19	-1	-406	i
C=CCn1c(SCC(=O)c2c(N)n(CCC)c(=O)n(C)c2=O)nc2sc(CC)cc2c1=O	4	-14	2	-8	2	3	nt	i
O=C(c1ccc(N2CCN(C(=O)c3cccc(F)c3)CC2)cc1)c1cccc(F)c1	9	-5	8	-7	6	-8	1	i
CCCCc1cc(=O)oc2cc(O)ccc12	1	nt	18	2	-5	0	26	?
CC(=O)Nc1ccc(-c2sc(Nc3ccccc3)n[n+]2C)cc1	-7	-2	8	5	1	3	-30	i
Cc1cccc(C)c1NC(=O)COC(=O)C1Cc2ccccc2CN1C(=O)c1ccccc1 (configuration not stated)	-1	-6	-9	7	-4	-1	-177	i
Cc1cccn2c(=O)c3cc(C(=O)NCc4cccnc4)c(=N)n(C(C)C)c3nc12	10	-13	-14	16	-4	2	-315	?
COC(=O)c1ccc(COC(=O)c2ccc(CO)cc2)o1	13	185*	-9	-5	0	-1	6	i
COCCCNC(=S)Nc1ccc(OC(F)F)cc1C	-10	-27	nt	5	0	-1	9	i
COCCNC(=S)N/N=C/c1ccc([N+](=O)[O-])cc1	3	-19	-12	4	-2	-3	1	i
COc1cccc(/C=N/NC(=O)c2[nH]c(C)c(C(=O)N/N=C/c3cccc(OC)c3)c2C)c1	5	-9	-1	-9	0	-9	34	i
O=C(C1COc2ccccc2O1)N1CCN(c2ccc(F)cc2)CC1 (configuration not stated)	8	0	-3	-7	7	0	nt	i
C=CCC1(CC=C)CCCN1C(=O)C1CCC(=O)N(CCc2ccc(Cl)cc2)C1 (configuration not stated)	9	-5	nt	-3	-5	-2	2	i
CCOC(=O)NC(=O)CSc1nc2ccccc2[nH]1	26	nt	4	-2	-4	-4	-3	i
Cc1cccc(-c2nnc(SCC#N)n2C)c1	-6	-19	-8	-5	1	5	-9	i
S=C1N(c2ccccc2)C(c2cccc3ccccc23)N2CCCN12 (configuration not stated)	-3	-5	3	1	4	0	nt	i
CN(C)c1nnnn1Cc1ccc(Cl)cc1Cl	-4	-3	-6	4	1	2	2	i
COc1ccc(NC(=S)NCc2cccn2C)cc1	7	-27	16	10	-1	-9	10	i
COC(=O)[C@]1(C)N[C@H](c2ccc(SC3CCCCC3)cc2)[C@@H]2C(=O)N(C)C(=O)[C@@H]21	nt	10	-8	nt	7	3	-24	i
Cn1c(O)c(/C=C2\C=NN=C2c2ccccc2)sc1=S	-11	nt	4	4	-6	-7	6	i
Cc1cc(C)nc(SCC(=O)Nc2ccc(S(=O)(=O)Nc3onc(C)c3C)cc2)n1	14	-12	-8	-1	-3	6	-10	i
CCOc1ccc(CNC(=O)c2ccc3nc(N4CCOCC4)sc3c2)cc1	-6	-7	9	3	3	0	-27	i
COC(=O)Cn1c(CN2CCN(C(=O)c3ccco3)CC2)nc2c1c(=O)n(C)c(=O)n2C	16	-15	20	-3	4	3	-5	i
O=C(CSc1nnc(-c2ccco2)o1)c1ccc([N+](=O)[O-])cc1	1	5	-2	-8	1	-2	4	i
O=C(O)CCCn1cc(NC(=O)COc2cc(F)ccc2[N+](=O)[O-])cn1	5	nt	9	-11	1	2	-1	i
CC(C(=O)NC1C=CS(=O)(=O)C1)N1C(=O)/C(=C/c2cccc(Cl)c2)SC1=S (configuration not stated)	nt	nt	10	nt	0	2	-23	i
CC(=O)Nc1ccc(S(=O)(=O)NNC(=O)c2sc(=S)n(C)c2C)cc1	-7	-15	0	-8	-1	1	nt	i
CCCCN(Cc1ccccc1)C(=O)CCN1C(=O)C2C3C=CC(C3)C2C1=O (configuration not stated)	-4	nt	4	-5	-1	1	6	i
COC(=O)Cn1c(CCS(=O)(=O)c2ccc(C)c(C)c2)nc2ccccc21	5	-9	nt	-1	-7	-1	9	i
COc1ccc(N2C(=O)CC(N3CCN(S(=O)(=O)c4c(C)cc(C)cc4C)CC3)C2=O)cc1 (configuration not stated)	nt	-14	3	nt	5	3	-3	nt
Cc1ccc(N(CC(=O)NCc2ccccc2)C(=O)CCC(=O)Nc2ccccn2)cc1C	10	6	-15	-13	-1	0	-1	nt
Cc1nc(/C(N)=N/OC(=O)c2ccc(Cl)cc2)c(C(F)(F)F)o1	-2	-25	-2	-9	0	2	-5	i
Cc1nnc(NC(=O)c2nc(S(=O)(=O)Cc3ccccc3C)ncc2Cl)s1	16	-21	85*	6	2	3	?	i
CCn1c(-c2nn(C)cc2Cl)n[nH]c1=S	3	-17	-2	4	1	2	-27	i
COc1ccc(C(=O)OCc2c(-c3cccc(OC)c3)ncc3ccccc23)cc1	nt	10	1	nt	6	4	-4	nt
COc1cc(CNc2ccc3[nH]c(=O)[nH]c3c2)cc(Br)c1OCc1ccccc1F	2	-6	11	0	-24	7	0	i
Cc1cc(C(=O)Nc2ccc([N+](=O)[O-])cn2)cs1	8	-20	4	10	5	-3	-47	i
OC(CN1CCCCC1)Cn1c(C(F)(F)F)nc2ccccc21 (configuration not stated)	19	-5	4	-6	4	3	nt	i
COc1cc2ccccc2cc1C(=O)N1CCN(c2ccccn2)CC1	2	1	0	-19	4	2	4	nt
NS(=O)(=O)c1ccc(N/N=C2/CCCCC2C2CCCCC2)c([N+](=O)[O-])c1 (configuration not stated)	-17	nt	+	-8	-10	-11	-7	i
O=C(NCCSCc1ccccc1)c1ccc(Cl)c(S(=O)(=O)N2CCOCC2)c1	1	-21	-15	2	-3	-8	44	i
CC1CCN(S(=O)(=O)c2ccc3c(c2)N(CC(=O)NCCCN2C(C)CCCC2C)C(=O)CO3)CC1 (configuration not stated)	1	-5	13	-4	-4	0	-8	i
C[C@@H]1C=C[C@](Cc2ccccc2)(C(=O)O)N1C(=O)c1ccccc1	nt	8	0	nt	-5	3	6	i
O=C(COC(=O)c1n[nH]c2ccccc12)Nc1ccc(S(=O)(=O)N2CCCC2)cc1	-14	-14	1	-4	-2	-24	nt	nt
COC(=O)c1cccnc1-n1c(=O)c2cccnc2n(Cc2ccc([N+](=O)[O-])cc2)c1=O	-3	nt	-6	-16	9	5	15	i

Screening data (PubChem BioAssay)
